Assay outcomes (PubChem BioAssay)
Polio RdRp inh: poliovirus RNA polymerase inhibition; P03300; poliovirus polymerase elongation, fluorescence polarization; active compounds read low; % elongation, % (compound at 16.7 µg/mL); hit rate 0.66% among 150,000; AID 588519; in the data active = % elongation below about 90%; also: some results filed as inactive read as strong as hits
Target sequence (P03300 1749-2209 limits assumed): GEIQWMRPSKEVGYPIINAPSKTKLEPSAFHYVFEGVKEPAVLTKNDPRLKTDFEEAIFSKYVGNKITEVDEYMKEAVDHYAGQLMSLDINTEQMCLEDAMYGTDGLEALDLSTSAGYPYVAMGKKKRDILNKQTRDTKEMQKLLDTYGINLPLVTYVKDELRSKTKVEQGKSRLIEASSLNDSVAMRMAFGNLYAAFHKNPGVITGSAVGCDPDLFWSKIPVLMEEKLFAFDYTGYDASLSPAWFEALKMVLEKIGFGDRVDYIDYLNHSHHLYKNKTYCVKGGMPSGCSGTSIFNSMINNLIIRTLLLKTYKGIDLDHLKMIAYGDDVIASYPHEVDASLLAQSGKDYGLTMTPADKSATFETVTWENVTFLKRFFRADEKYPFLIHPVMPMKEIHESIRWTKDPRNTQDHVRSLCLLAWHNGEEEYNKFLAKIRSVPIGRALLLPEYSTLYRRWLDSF
Mtb MbtI inh: MbtI salicylate synthase inhibition | P9WFX0 | purified MbtI enzyme, fluorescence intensity read-out | inhibition, %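 (about 17 µg/mL by stock and volumes)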 | AID 493033 | hit rate 0.89% among 100,000;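 active = above 50% in both replicates, above 80% if mildly self-fluorescent; inactive = the rest, strongly fluorescent compounds included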;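 also: 0% = mean of negative and 100% = mean of positive controls; one replicate is shown; some compounds called inactive have numbers as strong as hits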
Target sequence (P9WFX0 whole entry, looked up): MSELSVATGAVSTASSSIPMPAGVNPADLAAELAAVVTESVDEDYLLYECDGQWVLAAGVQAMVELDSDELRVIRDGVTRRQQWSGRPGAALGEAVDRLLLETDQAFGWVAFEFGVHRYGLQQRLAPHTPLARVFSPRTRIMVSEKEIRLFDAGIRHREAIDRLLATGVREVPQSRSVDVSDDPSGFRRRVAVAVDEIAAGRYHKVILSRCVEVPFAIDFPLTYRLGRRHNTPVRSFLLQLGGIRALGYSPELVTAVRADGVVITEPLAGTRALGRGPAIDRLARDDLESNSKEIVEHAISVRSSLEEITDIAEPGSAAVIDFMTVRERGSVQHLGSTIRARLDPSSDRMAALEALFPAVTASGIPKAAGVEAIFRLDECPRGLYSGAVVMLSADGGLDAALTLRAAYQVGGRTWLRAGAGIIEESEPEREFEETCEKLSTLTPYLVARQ
MenB inh: inhibitors of Mycobacterium tuberculosis MenB enzyme. MenB enzyme assay, absorbance read-out; some hits fall short of the stated cut. inhibition, %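 (about 12 µg/mL by stock and volumes)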. hit rate 0.43% among 100,000. AID 540299;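 active = mean of two replicates above 30%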;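 also: 0% = no compound and 100% = wells with inactive enzyme; the first replicate is given; strong numbers were not always called active; inactives centre near -10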
Polio RdRp inh intensity: also measured in Polio RdRp inh; calls as there; % elongation; measured here: total intensity read-out; formula for this scale not given here;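 total fluorescence in place of polarization; lower means less elongation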
* hit, by the source's call; . = no result given; & = joins results of further samples.

SMILES	Polio RdRp inh	Polio RdRp inh intensity	Mtb MbtI inh	MenB inh
CCn1c2ccccc2c2cc(/C=N/n3cnnc3)ccc21	105.0	108.0	-319.0	.
CC1CCN(c2c(N)cccc2Cl)CC1	100.0	111.0	.	2.0
BrCCOC12CC3CC(CC(C3)C1)C2	102.0	105.0	-13.3	.
O=C(CCn1[nH]c(=O)c2ccccc2c1=O)NCCO	104.0	100.0	11.9	-71.0
O=C(NC(Cc1ccccc1)C(=O)OCc1cnc(-c2ccccc2)o1)c1ccccc1 (stereo not given)	101.0	104.0	5.5	-37.0
Cc1c(CN(C)C)c2c(n1C)C(=O)c1ccc(Br)cc1-2	99.0	97.0	-0.4	0.1
Cc1ccccc1NS(=O)(=O)c1ccc2[nH]cc(C(=O)N3CCc4ccccc43)c(=O)c2c1	102.0	100.0	-22.2	-9.6
N=C1CCCN1c1ccccc1O	104.0	107.0	.	-20.1
C=CCC1(C#N)C(=S)NC(c2ccccc2)=C(C(=O)OCC)C1c1cccnc1 (stereo not given)	107.0	102.0	.	-30.0
O=c1c2c3c(sc2ncn1CCc1ccccc1)CCCC3	99.0	107.0	.	-13.3
CC(O)Cn1c(=N)n(C)c2ccccc21 (stereo not given)	102.0	103.0	-12.4	5.0
CNS(=O)(=O)c1cc(OC)ccc1OC	103.0	103.0	7.2	1.5
CCS(=O)(=O)N1CCc2cc(C(=O)COC(=O)c3ccc(NC(=O)CC#N)cc3)ccc21	109.0	111.0	5.8	-13.2
C=CCSc1nnc(Cn2cnc3ccccc32)n1C	102.0	101.0	7.9	-34.6
CCCCC/C=C\C/C=C\CCCCCCCC(=O)NCC(=O)O	101.0&98.0	103.0&102.0	-20.5	1.9
CCN(CC)CC(=O)Nc1ccccc1-c1nc2ccccc2[nH]c1=O	.	.	-2.7	-13.5
Cc1cc(C#N)c(C)n1CCCn1ccnc1	104.0	105.0	0.2	-5.3
NC(=O)c1nn(CC(=O)N2CCCSc3ccccc32)c(=O)c2ccccc12	101.0	100.0	9.1	-14.9
O=C(c1ccc(S(=O)(=O)NCc2ccco2)cc1)N1CCN(c2ccc(F)cc2)CC1	106.0	107.0	3.3	-16.9
COc1cc(O)c(C(=O)Cc2cc3ccccc3o2)cc1C(C)C	103.0	108.0	0.0	-21.2
O=c1[nH]c2ccc(S(=O)(=O)Nc3ccc(O)cc3)cc2[nH]1	104.0	109.0	-6.0	6.5
O=C1NCCCN1Cc1ccc(F)cc1Cl	102.0	102.0	6.4	-0.8
COc1cc(NC(=O)C(Sc2nc(C)cc(C)c2C#N)c2ccccc2)c(OC)cc1Cl (stereo not given)	104.0	91.0	-5.3	-22.3
CC(=O)NC12CCC3CC(CC(C3)C1)C2	.	.	6.3	-4.8
CC1(C)CC(=O)C(Sc2nnc(-c3ccc(O)cc3)n2CC2CCCO2)C(=O)C1 (stereo not given)	104.0	102.0	-12.9	-32.4

The last 2 records of the section above open the next one.
SMILES	Polio RdRp inh	Polio RdRp inh intensity	Mtb MbtI inh	MenB inh
CC(=O)NC12CCC3CC(CC(C3)C1)C2	.	.	6.3	-4.8
CC1(C)CC(=O)C(Sc2nnc(-c3ccc(O)cc3)n2CC2CCCO2)C(=O)C1 (stereo not given)	104.0	102.0	-12.9	-32.4
O=C(COc1ccc(Cl)cc1)OCCOc1ccccc1F	102.0	108.0	-13.4	.
Cc1cc2c(o1)-c1c(oc3ccccc13)CCC2(C)c1ccccc1 (stereo not given)	105.0	111.0	.	-2.6
CN(C)CCn1c(-c2ccccc2)cc(=S)c2c1CCCC2	100.0	100.0	4.9	-57.6
CC1NC(=O)C(C#N)=C(SCc2ccccc2)S1 (stereo not given)	105.0	108.0	11.4	-0.5
COC(=O)C1=CN(C(C)C)C=C(C(=O)OC)C1c1ccc(OC)cc1	103.0	102.0	-53.3	-9.7
CC(O)CN1CCCCC1c1cccnc1 (stereo not given)	47.0	246.0	.	-8.4
C=CCc1cccc(C)c1OCCCN1CCC(C)CC1	102.0	106.0	-9.2	-6.5
O=C(CCS(=O)(=O)c1cc(Br)cc2c1N(C(=O)C1CC1)CC2)N1CCCCC1	104.0	103.0	-10.2	-5.9
CC(=O)N1CCc2cc(S(=O)(=O)N3CCc4ccccc4C3CN3C(=O)c4ccccc4C3=O)ccc21 (stereo not given)	104.0	98.0	-4.6	-24.7
COc1ccc(NC(=O)COc2ccc(Cl)c(C)c2)cn1	102.0	104.0	-0.7	-13.3
CC(=O)Nc1ccc(S(=O)(=O)CCC(=O)O)cc1	106.0	97.0	.	0.0
CC12CN3CCN(CC(C3)/C1=N\O)C2	98.0	102.0	-6.1	-3.2
CN(C)S(=O)(=O)c1ccc(NC(=O)Nc2ccccc2)cc1	100.0	98.0	-7.5	9.1
C[n+]1cn(CC(=O)Nc2ccccc2)c2ccccc21	100.0	103.0	-2.4	.
N#Cc1ccc(C2N=C(c3ccccc3)NO2)cc1 (stereo not given)	101.0	99.0	-8.8	.
O=C(c1ccc(C(F)(F)F)cc1)N1CCCCC1	98.0	98.0	.	-13.0
N#CCn1c(=O)c2c(ncn2Cc2ccccc2)n(Cc2ccccc2)c1=O	101.0	115.0	-6.8	0.4
CCNC(=O)Oc1noc2ccc(C)cc12	99.0	100.0	-4.9	-7.3
Cc1cc2c(NC3CCCC3)ncnc2s1	103.0	101.0	-1.8	-17.6
COc1ncnc2oc(C)c(C(=O)Nc3cccc(Cl)c3)c12	101.0	103.0	-7.5	7.4
O=C1NC2(CCOc3ccccc32)C(=O)N1CC1NS(=O)(=O)N=C2CCCCCN21 (stereo not given)	100.0	107.0	-7.5	-55.8
O=C(COc1ncnc2sc(-c3ccccc3)cc12)N1CCNC1=O	101.0	112.0	75.8	-25.6
Cc1nc2ccc(Cl)cc2nc(C)/c1=N\O	102.0	104.0	6.3	1.1
O=C(CSc1nnc2n1CCCCC2)NC(=O)c1cccs1	101.0	104.0	-6.6	2.7
CCn1cc(C(=O)N2CCCSC2=Nc2ccccc2)c(=O)c2ccc(C)nc21	105.0	103.0	-15.4	13.6

(continued)
SMILES	Polio RdRp inh	Polio RdRp inh intensity	Mtb MbtI inh	MenB inh
CCCCNC(=O)c1ccc2cn[nH]c2c1	101.0	99.0	101.5	-16.3
O=C(Cc1csc(NC(=O)c2ccco2)n1)NCc1ccc(Cl)cc1	106.0	104.0	1.2	-6.1
N#Cc1c(N)c(C(=O)c2ccccc2)n2c1CCC2	101.0	100.0	6.8	6.7
Cc1cc(C)nc(SCC(=O)N2c3ccccc3C(C)CC2(C)C)n1 (stereo not given)	101.0	106.0	2.8	-24.5
O=C(NC(N1CCCC1=O)(C(F)(F)F)C(F)(F)F)c1cccnc1	108.0	108.0	-14.6	-22.0
Clc1ccc(SCc2csc(-c3ccsc3)n2)cc1	103.0	113.0	5.6	-19.3
CN(CC(O)COCc1cccs1)C1CCCCC1 (stereo not given)	102.0	96.0	2.1	.
COC(=O)c1c(C)[nH]c(C2=NNC(=NC3CCCCC3)SC2C)c1C (stereo not given)	96.0	89.0	13.6	-3.7
Cc1ccc(-n2c(C)cc(C(=O)OCc3ccc(C#N)cc3)c2C)cc1	101.0	100.0	-3.4	-71.2
O=C(COc1ccc(F)cc1F)n1cnc2ccccc21	103.0	99.0	.	-6.9
O=C(O)c1ccc(C2SCC(=O)N2NS(=O)(=O)c2ccc(F)cc2)cc1 (stereo not given)	93.0	99.0	.	2.5
NC(=O)c1cc(Cl)ccc1I	110.0	112.0	-3.1	-1.3
COc1cc(-c2cc(C#N)on2)cc(OC)c1OC	98.0	93.0	.	-31.8
Cc1ccc2nc(C3CCCCC3)[nH]c2c1	102.0	105.0	1.7	2.8
CCc1ccccc1NC(=O)CNCc1ccccc1	102.0	103.0	2.1	-38.8
CCOC(=O)c1nn(-c2ccccc2)c(=O)cc1OCC(=O)Nc1ccc2c(c1)OCCO2	107.0	104.0	4.2	-1.3
COC(=O)c1ccc(C(=O)Nc2ccc3nc(CN4CCCCC4)[nH]c3c2)cc1	100.0	100.0	9.9	11.9
Cc1c(C(=O)O)oc2ccc3c(c12)C(=O)CC1(CCCC1)O3	100.0	104.0	-15.2	0.6
CCCCSc1nnc2sc3ccccc3n12	100.0	103.0	4.7	5.0
CC1Cc2ccccc2N1C(=O)CSc1ccc2c(c1)OCCO2 (stereo not given)	100.0	102.0	-1.0	-5.6
CCSc1cc(C(F)(F)F)nc2cc(C(C)(C)C)nn12	100.0	101.0	86.5*	-9.9
CCc1nnc(NC(=O)c2ccc(S(=O)(=O)N3CCCCC3C)cc2)s1 (stereo not given)	102.0	105.0	1.1	-7.3
COc1ccc(OC)c(S(=O)(=O)c2ccc(C)cc2)c1	104.0	103.0	4.6	4.0
CC(=O)Nc1ccc(S(=O)(=O)N2CCCCC2C)cc1 (stereo not given)	105.0	103.0	.	-2.2
COc1ccc(-c2noc(CN3CCCC(C(=O)O)C3)n2)cc1OC (stereo not given)	101.0	103.0	-3.8	-3.7

By substructure: the entries above containing bromine (three)
SMILES	Polio RdRp inh	Polio RdRp inh intensity	Mtb MbtI inh	MenB inh
BrCCOC12CC3CC(CC(C3)C1)C2	102.0	105.0	-13.3	.
Cc1c(CN(C)C)c2c(n1C)C(=O)c1ccc(Br)cc1-2	99.0	97.0	-0.4	0.1
O=C(CCS(=O)(=O)c1cc(Br)cc2c1N(C(=O)C1CC1)CC2)N1CCCCC1	104.0	103.0	-10.2	-5.9

In the list so far, these have a Cl atom:
SMILES	Polio RdRp inh	Polio RdRp inh intensity	Mtb MbtI inh	MenB inh
CC1CCN(c2c(N)cccc2Cl)CC1	100.0	111.0	.	2.0
O=C1NCCCN1Cc1ccc(F)cc1Cl	102.0	102.0	6.4	-0.8
COc1cc(NC(=O)C(Sc2nc(C)cc(C)c2C#N)c2ccccc2)c(OC)cc1Cl (stereo not given)	104.0	91.0	-5.3	-22.3
O=C(COc1ccc(Cl)cc1)OCCOc1ccccc1F	102.0	108.0	-13.4	.
COc1ccc(NC(=O)COc2ccc(Cl)c(C)c2)cn1	102.0	104.0	-0.7	-13.3
COc1ncnc2oc(C)c(C(=O)Nc3cccc(Cl)c3)c12	101.0	103.0	-7.5	7.4
Cc1nc2ccc(Cl)cc2nc(C)/c1=N\O	102.0	104.0	6.3	1.1
O=C(Cc1csc(NC(=O)c2ccco2)n1)NCc1ccc(Cl)cc1	106.0	104.0	1.2	-6.1
Clc1ccc(SCc2csc(-c3ccsc3)n2)cc1	103.0	113.0	5.6	-19.3
NC(=O)c1cc(Cl)ccc1I	110.0	112.0	-3.1	-1.3

Later entries.
SMILES	Polio RdRp inh	Polio RdRp inh intensity	Mtb MbtI inh	MenB inh
CCOc1ccc2c(c1)c(=O)c1cccnc1n2Cc1ccccc1C	102.0	103.0	-10.1	-15.9
O=C(Nc1cccc(-c2nn[nH]n2)c1)c1cccs1	101.0	101.0	9.5	-17.5
Cc1ccc(NC(=O)c2ccsc2)cc1NS(C)(=O)=O	106.0	109.0	-6.8	-7.4
FC(F)(F)N(c1ccccc1)c1ccccc1	102.0	103.0	-6.0	.
CC1CCN2C(c3ccc(Cl)cc3)=CSC2=N1 (stereo not given)	99.0	108.0	30.2	-8.5
CO/C([O-])=N/c1c[n+](-c2ccc(Cl)cc2)no1	109.0	108.0	.	0.1
Cc1ccc2nc(NC(=O)c3ccco3)sc2c1	101.0	94.0	123.5	-0.8
Cc1nc(SCC(=O)N2CCSc3ccccc32)c(C#N)c(C)c1C	105.0	100.0	13.2	-7.3
COc1ccc(C(=O)c2oc3cc(OC)ccc3c2C)cc1	105.0	111.0	-5.7	-42.8
CCCN(CCC)Cc1nnc(-c2cccc(Br)c2)o1	102.0	105.0	-10.0	-0.9
NS(=O)(=O)c1ccc(NC(=O)C2CC2)cc1	104.0	98.0	.	9.4
CC(C)c1ccc(NC(=O)C(c2ccccc2)N(C)C)cc1 (stereo not given)	100.0	102.0	-2.3	-41.4
CCN(CC)c1ccc(C(=O)OCC(=O)Nc2ccc(F)cc2F)cc1	103.0	106.0	-7.3	.
Cc1ncc(CO)c2cc(C(=O)Nc3ccc(I)cc3)c(=O)oc12	101.0	100.0	-1.6	-1.9
CC(C)n1nccc1N	102.0	101.0	0.6	-76.6
CCn1c(CNC(=O)c2cccs2)nnc1SCC(=O)NO	101.0	98.0	-4.5	4.4
Cc1ccc2c(c1)C(C)(C)C1(C)N(Cc3ccccc3)C(=O)CN21 (stereo not given)	107.0	97.0	-6.5	-27.2
O=C(O)CCCN1C(=O)c2cccnc2Sc2ccccc21	104.0	102.0	-5.0	-5.5
CC1CCc2cc(F)ccc2N1C(=O)Nc1ccccc1 (stereo not given)	100.0	102.0	10.3	-7.2
Cc1cccc(NC(=O)Cn2nnc(C(=O)NCc3ccc4c(c3)OCO4)c2N)c1C	106.0	96.0	-8.1	-35.8
CCOC(=O)c1c(C)c(-c2ccccc2)n(CC(=O)N(CC)CC)c1C	100.0	97.0	-3.5	-9.2
Cc1ccc(C)c(C(=O)COC(=O)/C=C/c2ccccc2Cl)c1	101.0	104.0	-9.7	.
